# PMP22 txn: Cell-based coincidence reporter assay to measure PMP22 gene transcription in S16 Pmp22-F2sN cells - Primary screen | Potency, µM (series often up to 57.5 µM), without a hit: top-dose activity change, negative = inhibition, most hits filed as inhibitors | S16 Pmp22-F2sN Schwann cells (luciferase reporters placed in the Pmp22 gene), FLuc/NLuc coincidence luminescence, 24 h | 43,000 tested, 2% active; active = clear falling dose curves in both reporters; inconclusive = both reporters move, but less clearly or upward; inactive = either reporter flat; the % is the NLuc reporter signal; further: on the % scale 0 is the no-effect control and ±100 the full control effect; some results filed as inactive show a strong effect at the top dose
#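 Luminescent read-out of sequential FLuc and NLuc signals from a reporter embedded in the Pmp22 3' UTR of S16 Schwann cells, taken after 24 h compound exposure at 37C; compounds reducing both signals score as inhibitors of expression.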
# HTT prom inh: Primary qHTS for Identification of Small Molecule Inhibitors of Huntingtin Promoter Activity; HEK293 HTT promoter firefly luciferase reporter (activity 0% = vehicle and -100% = no light), 24 h; Potency, µM (doses to about 57.5 µM), for the others: at the top dose activity change, negative = inhibition, most hits filed as inhibitors; 48,000 tested, 0.93% active; AID 1508623, 2021; active means well fitted inhibition curve with a large enough effect; inconclusive means small, poorly fitted or top-dose-only effect; inactive means no such curve, though single readings can be large or run the other way; further: nearly all actives have a fitted effect of over 50% in size
#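 HEK293 Fluc reporter, 2,500 cells/well, 24 h pre-culture; cpds up to 57.5 uM final, 24 h 37 degrees C; Dual-Glo, 10 min RT; normalized vehicle = 0%, zero RLU = -100%.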
# * marks the source's active call; other numbers are inactive results; u = inconclusive; x = not tested or not shown; [ ] = dose if it differs, or a comment. Potency means the concentration at half of the fitted maximal effect.
SMILES,PMP22 txn,HTT prom inh
Cc1ccccc1Nc1cc(C(=O)NC2CCCC2)c2ccccc2n1,-7%,0%
Cc1ccc(Cl)cc1N1CCN(C(=O)c2cc(S(=O)(=O)N3CCC(C)CC3)cn2C)CC1,u,u
COc1ccc(-c2nnc(SCC(=O)NCc3ccc(C)cc3)nc2-c2ccc(OC)c(OC)c2)cc1OC,u,u
Cn1cc(CCCC(=O)NCc2ccccc2Cl)c2ccccc21,-12%,2%
O=C(CSCc1ccc(F)cc1)N1CCN(c2ccccc2)CC1,-22%,0%
Cc1ccc(C)c(NC(=O)CSc2nc(-c3ccccc3)cc(=O)[nH]2)c1,-1%,-4%
CCOc1ccccc1N1CC(c2nc3ccccc3n2CCCOc2ccccc2OC)CC1=O (centres undefined),-21%,2%
CC(C)Oc1ccc(CNC(=O)Cn2c(-c3cccs3)cc3ccccc32)cc1,u,u
Cc1ccc2c(c1)-c1c(c(C(=O)N3CCN(c4cc(Cl)ccc4C)CC3)nn1C)CS2,u,-9%
O=C(Nc1sc2c(c1C(=O)Nc1ccc(Cl)cc1)CCCC2)c1cccs1,u,-14%
COc1cc2nc(Nc3cccc(F)c3)nc(N)c2cc1OC,u,-15%
COc1cc(Cl)c(NC(=O)c2cc(CN3CCCC3)on2)c(OC)c1,-21%,-8%
CC1CCN(C(=O)CSc2c3c(nc4cc(Cl)ccc24)CCCC3)CC1,u,-15%
COc1cccc(-n2cc(C(=O)Nc3cc(C)c(Cl)cc3OC)c3ccccc3c2=O)c1,-7%,-21%
COc1ccc(NC(=O)CCc2nc3cccnc3n2-c2ccccc2)c(OC)c1,-8%,-32%
Cc1nn(CC(=O)N2CCN(c3ccccc3F)CC2)c(=O)c2cccn12,-21%,-7%
COc1ccccc1N1CCN(C(=O)c2ccc3c(c2)N(Cc2ccccc2)C(=O)c2ccccc2S3(=O)=O)CC1,u,u
O=C(NCc1cccc(Cl)c1)C1CCCN(c2ncnc3onc(-c4ccc(F)cc4)c23)C1 (centres undefined),u,-22%
O=Cc1ccccc1C=O,x,4%
CC(C)Nc1nc2c(-c3cccc(Br)c3)nnn2c2ccccc12,u,11%
CCN(CC)C(=O)c1sc2c(c1C)c(=O)n(Cc1ccccc1)c(=O)n2Cc1ccccc1C,u,-10%
CCOc1ccc(NC(=O)Cn2cc(C(=O)c3ccc(F)cc3)c(=O)c3cc4c(cc32)OCCO4)cc1,-9%,-4%
COc1cccc(N2CCN(C(=O)c3ccc4nc(N5CCC(C)CC5)sc4c3)CC2)c1,-23%,u
CCOC(=O)c1ccc(Nc2ncnc3c2cnn3-c2cccc(Cl)c2)cc1,7%,-1%
Cc1ccc(OCc2cc(=O)n3cc(C)sc3n2)c(NC(=O)c2ccco2)c1,u,-8%

# Exported with each value named: 4 of the compounds above
> O=C(Nc1sc2c(c1C(=O)Nc1ccc(Cl)cc1)CCCC2)c1cccs1
  PMP22 txn = u	HTT prom inh = -14%

> COc1cc2nc(Nc3cccc(F)c3)nc(N)c2cc1OC
  PMP22 txn = u	HTT prom inh = -15%

> COc1cc(Cl)c(NC(=O)c2cc(CN3CCCC3)on2)c(OC)c1
  PMP22 txn = -21%	HTT prom inh = -8%

> CC1CCN(C(=O)CSc2c3c(nc4cc(Cl)ccc24)CCCC3)CC1
  PMP22 txn = u	HTT prom inh = -15%

# Remaining list, next part.
SMILES,PMP22 txn,HTT prom inh
Cc1ccc(CNC(=O)C(C)n2c(=O)cc(C(F)(F)F)c3c(C)nn(C)c32)cc1 (centres undefined),u,0%
CCc1ccc(NC(=O)CSc2nc(-c3ccc(C)cc3)nc3c2Cc2c(CO)cnc(C)c2O3)cc1,-3%,-13%
CSc1cccc(Nc2nc3c(S(=O)(=O)c4ccccc4)nnn3c3ccc(Cl)cc23)c1,6%,6%
Cc1ccc(Cn2c(=O)n(-c3cc(C)cc(C)c3)c(=O)c3oc4ccccc4c32)cc1,-52%,-3%
O=C(NC1CCCC1)c1ccc2c(c1)N(Cc1ccccc1F)C(=O)c1ccccc1S2,-16%,-9%
COc1ccc(NC(=O)c2ccc(NC(=O)CCS(=O)(=O)c3cccs3)cc2)cc1Cl,u,-2%
N#CC1(c2ccc(NC(=O)c3cccnc3NCc3ccncc3)cc2)CCCC1,x,9%
Cc1cc(Nc2cccc(Cl)c2)nc2ccc(NC(=O)Cc3ccc(Cl)cc3)cc12,u,u
O=C(Nc1ccccc1)c1ccc(Cl)c(S(=O)(=O)Nc2ccccc2)c1,3%,7%
COc1ccc(CNC(=O)c2cn(-c3cccc(OC)c3)c(=O)c3ccccc23)cc1,1%,-9%
O=C(c1ccc2c(c1)N(Cc1ccccc1Cl)C(=O)c1ccccc1S2)N1CCCC1,-24%,-17%
Cc1cccc(C)c1NC(=O)c1nc(S(C)(=O)=O)ncc1N(Cc1ccc(F)cc1)Cc1ccco1,-2%,-36%
CC(=O)N1c2ccc(S(=O)(=O)NCCC(=O)Nc3ccc(C)cc3Br)cc2CC1C (centres undefined),u,u
CCN(CC)CCNC(=O)c1ccc2c(c1)sc1nc(-c3ccc(F)cc3)cn12,u,5%
Cc1cc(C)cc(NC(=O)Cn2cc(C(=O)c3ccccc3)c(=O)c3ccc(C)nc32)c1,-3%,0%
COc1ccccc1N1CCN(c2nc3ccc(C)cc3nc2-n2nc(C)cc2C)CC1,-29%,u
CC(=O)N1CCc2c(sc3c2c(=O)n(Cc2ccccc2)c(=O)n3Cc2ccccc2F)C1,u,-24%
COc1ccccc1CCNC(=O)c1cccn1-c1nnc(N2CCCC2)s1,-17%,-2%
CCC(CC)C(=O)Nc1ccc(OCc2cc(=O)n3ccsc3n2)cc1,-10%,17%
C=CCc1ccccc1OCc1nc2ccc(C)cc2[nH]1,-35%,-25%
O=C(Nc1ccccc1F)C(Cc1ccccc1)N1Cc2ccccc2C1=O (centres undefined),2%,-13%
CCOc1ccc(NC(=O)CSc2nc(-c3cccc(Cl)c3)nc3c2Cc2c(CO)cnc(C)c2O3)cc1,-13%,-10%
COc1ccc(-n2ncc(C(=O)Nc3ccc4c(c3)OCO4)c2C2CCN(C(=O)OC(C)(C)C)CC2)cc1,u,20%
COc1cc2[nH]c(=O)n(CCCC(=O)NCc3ccccc3Cl)c(=O)c2cc1OC,-10%,-8%
COc1ccc(-c2cc(C(F)(F)F)nc(S(=O)(=O)CCCC(=O)Nc3ccccc3C(F)(F)F)n2)cc1OC,u,u
SMILES,PMP22 txn,HTT prom inh
COc1cc(NC(=O)c2cccc(Cl)c2Cl)ccc1NC(=O)c1cc2ccccc2o1,-2%,-28%
O=C(Cn1nnc2sc3c(c2c1=O)CCCC3)Nc1ccc(F)c(Cl)c1,1%,-8%
O=C(NCCCN1CCN(c2cccc(Cl)c2)CC1)c1sc2ncccc2c1-n1cccc1,u,u
COC(=O)c1c(NC(=O)CS(=O)(=O)c2ccc(C)cc2)sc2c1CCCCC2,-26%,u
CCCSc1oc(-c2cccs2)nc1S(=O)(=O)c1ccc(Cl)cc1,-17%,u
COc1cc(NC(=O)CSc2nnc(C)n3c2cc2oc(C)cc23)cc(OC)c1,u,-3%
COC(=O)c1ccccc1NC(=O)c1cc2c(s1)-c1ccccc1OC2,u,-19%
Cc1ccccc1NC(=O)CN1C(=O)C2(SCC(=O)N2c2ccc(F)cc2)c2ccccc21 (centres undefined),-10%,-9%
Cc1ccc(NC(=O)Cn2cc(S(=O)(=O)N3CCCC3)c(S(=O)(=O)N3CCCC3)c2)cc1F,18%,8%[11.5 µM]
CCc1ccc(NC(=O)N2CCN(Cc3cc(=O)n4nc(-c5ccccc5OC)sc4n3)CC2)cc1,-50%,1%
COc1ccc(-c2csc(-c3c(N)c(C(=O)c4ccccc4)n4ccccc34)n2)cc1,-16%,2%
O=C(Nc1cccc(C2=NCCN2)c1)Nc1cccc(C2=NCCN2)c1,x,-3%[25.2 µM]
COc1ccc(C)cc1NC(=O)CN1CCCN(S(=O)(=O)c2ccc(Br)cc2)CC1,-18%,u
CC1CCN(S(=O)(=O)c2nnc(NC(=O)c3cccc(Br)c3)s2)CC1,-9%,u
Cn1c(=O)c2nc(SCC(=O)Nc3ccc(OC(F)(F)F)cc3)n(C)c2n(C)c1=O,-6%,-1%
CCCc1nnc(NC(=O)c2cc(=O)c3cc(C)c(C)cc3o2)s1,-42%,-5%
COc1ccc(NC(=O)C(=O)NCc2ccco2)cc1,2%,42%[activator]
CCOc1ccc(S(=O)(=O)Nc2ccc(-c3ccc(OC)nn3)cc2)cc1,11%,u
COCC(=O)n1nc(-c2ccco2)nc1NCc1ccccc1Cl,-3%,49%[activator]
Cc1nc(-n2nc(C)c(CCC(C)C)c2C)sc1C(=O)Nc1cccc(Cl)c1C,-8%,2%
CCOC(=O)c1c(NC(=O)/C=C/c2ccc(OCC)c(OC)c2)sc2c1CCC2,-7%,-7%
COc1ccc(NC(=O)C2=C(C)Nc3ncnn3C2c2cccn2C)cc1 (centres undefined),-2%,-12%
Cc1cc(C)cc(NC(=O)CSc2nc3c([nH]c4ccccc43)c(=O)n2-c2ccc(F)cc2)c1,u,-28%
Cc1c(C(=O)OCC2CCCCC2)[nH]c2c1C(=O)CC(c1ccc(F)cc1)C2 (centres undefined),0%,6%
CC(=O)N1CCOc2cc(S(=O)(=O)NCc3ccc(C)cc3)c(C)cc21,-10%,-5%
SMILES,PMP22 txn,HTT prom inh
Cc1ccc(N2C(=O)[C@@H]3CSC(c4ccc(F)cc4)N3C2=O)cc1 (some centres undefined),7%,-34%
Cc1ccc(CNC(=O)CSc2c(C)cnc3c2c(=O)n(C)c(=O)n3C)cc1,u,36%[activator]
CCOc1ccccc1NC(=O)CSc1nnc(CC)c(CC)n1,-19%,-22%
Cc1ccc(Cl)cc1Nc1nc2ccccc2n2c(C)nnc12,u,-9%
COc1ccc(CNC(=O)CCCn2c(SCC(N)=O)nc3cc4c(cc3c2=O)OCO4)cc1,u,-23%
CCc1ccc(CNC(=O)c2cnc3sc(N4CCCCCC4)nn3c2=O)cc1,-8%,10%
O=C(CSc1cn(CCNC(=O)c2ccccc2F)c2ccccc12)Nc1ccc(F)cc1,u,-19%
O=C1C(Cl)=C(NCCN2CCOCC2)C(=O)c2ncccc21,x,u
CCn1cc(C(=O)N2CCN(c3cccc(Cl)c3)CC2)c(=O)c2cc(S(=O)(=O)N3CCOCC3)ccc21,-13%,0%
COc1cc(C)ccc1OCCn1c(-c2ccc(Cl)cc2)nc2ccccc2c1=O,-3%,1%
CCCN1CCCc2cc(CN(CCCN3CCOCC3)C(=O)Nc3ccc(Cl)c(Cl)c3)ccc21,-11%,-30%
COc1ccc(NC(=O)CCS(=O)(=O)c2cc3c4c(c2)CCN4C(=O)CC3)cc1OC,-4%,-21%
C[C@]12CCC(=O)C=C1CC[C@H]1[C@@H]3CC[C@](O)(C(=O)CO)[C@@]3(C)C[C@H](O)[C@@]12F,x,9%
CCCSc1ncc(Cl)c(C(=O)Nc2c(C(=O)Nc3ccc(OC)cc3)oc3ccccc23)n1,-34%,-15%
COc1ccc(CCNC(=O)c2cnc3sc(N4CCCCCC4)nn3c2=O)cc1OC,u,3%
Cc1cccc(Nc2nc(-c3ccccc3)c3cc(C)ccc3n2)c1,-2%,-19%
CCOc1ccc(NC(=O)c2sc(-n3nc(C)c(Cc4ccc(Cl)cc4)c3C)nc2C)cc1,u,7%
NC(=O)Cn1c(=O)n(-c2ccc(F)c(Cl)c2)c(=O)c2sc3ccccc3c21,-3%,-28%
O=C(CCCn1c(=O)c2cccn2c2cccnc21)NCc1ccc(F)cc1,18µM*,8%
Cc1ccccc1NC(=O)CCNC(=O)Cn1ccc2ccccc2c1=O,1%,1%
CCN(Cc1ccccc1)C(=O)Cn1c(=O)n(-c2cccc(C)c2)c(=O)c2c1c1cc(OC)ccc1n2C,u,-12%
COc1cccc(Cc2nc3ccccc3nc2SCC(=O)NCCc2ccccc2)c1,u,u
Cc1ccc(-c2cc(NC(=O)COc3c(C)cc(C)cc3C)on2)cc1,-17%,30%[activator]
Clc1ccc(CCNc2nc3cc(Cl)c(Cl)cc3n3cnnc23)cc1,2%,-1%
Cc1ccc(NC(=O)Cn2c(-c3nonc3N)nc3ccccc32)cc1C,-1%,-1%
CCn1c(=O)c2cc(C(=O)Nc3cc(F)ccc3F)sc2c2ccccc21,u,4%
Cc1nn(-c2ccc(F)cc2)c(-n2cccc2)c1C(=O)NCCc1ccc(Cl)cc1,u,u
O=C(NC(=O)c1ccccc1)Nc1ccc(-n2nc(C(F)(F)F)cc2C(F)(F)F)cc1,22%,76%[activator]

# Looked up one by one from above:
SMILES,PMP22 txn,HTT prom inh
C[C@]12CCC(=O)C=C1CC[C@H]1[C@@H]3CC[C@](O)(C(=O)CO)[C@@]3(C)C[C@H](O)[C@@]12F,x,9%
CCc1ccc(CNC(=O)c2cnc3sc(N4CCCCCC4)nn3c2=O)cc1,-8%,10%
Cc1nn(-c2ccc(F)cc2)c(-n2cccc2)c1C(=O)NCCc1ccc(Cl)cc1,u,u
Cc1ccccc1NC(=O)CCNC(=O)Cn1ccc2ccccc2c1=O,1%,1%
CCCSc1ncc(Cl)c(C(=O)Nc2c(C(=O)Nc3ccc(OC)cc3)oc3ccccc23)n1,-34%,-15%

# Screens: PubChem, National Center for Advancing Translational Sciences (NCATS)
